KCNQ2 enhance: enhances the rat KCNQ2 potassium channel. O88943. CHO-K1 KCNQ2, FluxOR thallium flux fluorescence; active compounds read high. B-score at 10 µM. 310,000 tested, 0.54% active;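 active means fluorescence ratio B-score at least 3 SD of library B-scores, with initial fluorescence B-score within 3 SD, cut at about 5.3 in these data; same plate scores as AID 2156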;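 further: B-score of peak minus minimum over baseline fluorescence ratio after K+ and Tl+ stimulus; positive B-score means potentiation of KCNQ2 with more thallium influx and brighter signal; only the inactives scoring about 0 or higher are listed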
Target sequence (O88943 whole entry, looked up): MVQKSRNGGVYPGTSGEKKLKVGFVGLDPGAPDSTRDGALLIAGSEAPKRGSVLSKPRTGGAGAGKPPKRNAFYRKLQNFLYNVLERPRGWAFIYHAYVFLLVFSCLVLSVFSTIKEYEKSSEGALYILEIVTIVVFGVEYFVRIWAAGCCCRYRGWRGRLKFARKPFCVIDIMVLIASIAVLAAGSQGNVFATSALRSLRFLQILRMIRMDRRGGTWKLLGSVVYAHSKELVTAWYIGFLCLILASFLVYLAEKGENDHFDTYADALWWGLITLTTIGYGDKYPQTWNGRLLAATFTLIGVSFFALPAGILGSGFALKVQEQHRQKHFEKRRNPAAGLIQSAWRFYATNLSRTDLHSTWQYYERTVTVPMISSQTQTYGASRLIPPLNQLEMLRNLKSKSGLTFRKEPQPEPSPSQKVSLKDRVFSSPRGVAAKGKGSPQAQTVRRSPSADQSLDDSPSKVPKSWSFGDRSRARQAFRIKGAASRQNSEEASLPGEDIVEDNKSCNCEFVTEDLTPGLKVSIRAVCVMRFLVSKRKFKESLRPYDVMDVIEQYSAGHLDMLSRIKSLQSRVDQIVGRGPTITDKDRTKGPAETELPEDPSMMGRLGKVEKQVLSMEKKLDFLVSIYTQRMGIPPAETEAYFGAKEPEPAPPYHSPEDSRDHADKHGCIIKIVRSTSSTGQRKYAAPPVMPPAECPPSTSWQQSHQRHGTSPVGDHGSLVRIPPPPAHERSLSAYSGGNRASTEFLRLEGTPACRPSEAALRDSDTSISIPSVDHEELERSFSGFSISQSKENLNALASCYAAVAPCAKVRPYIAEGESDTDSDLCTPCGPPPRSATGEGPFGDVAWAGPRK
KCNQ2 enhance baseline: also measured in KCNQ2 enhance; calls as there; B-score; compound at 10 µM; measured here: initial fluorescence intensity artifact check;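 brightness before thallium and not channel activity; 0 = typical well and far values either way flag optical interference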
The depositor's hits bear a star.

SMILES	KCNQ2 enhance	KCNQ2 enhance baseline
COc1ccc(/C=N/NC(=O)CCNc2n[nH]c(=O)[nH]c2=O)c(OC)c1	1.1	0.1
O=C(Nc1cccc(C(F)(F)F)c1)c1cc(-c2cccs2)on1	0.32	0.27
CC(NC(=O)c1ccccc1NC(=O)CSc1nnnn1C)c1ccccc1 (stereo not given)	0.48	-0.08
CCn1c(=O)c(C(=O)Nc2ccc(C)cc2)c(O)c2ccccc21	1.3	-1.1
Cc1ccc(NC(=O)C2C3CCC(O3)C2C(=O)O)c(Br)c1 (stereo not given)	1.2	-1.5
CC(C)C(=O)Nc1ccc(NC(=O)c2cccc3c(Br)cccc23)cc1	2	-0.53
CCCCc1nc2cc(C(=O)N3CCCC(OCCC)C3)ccc2o1 (stereo not given)	0.02	-1.8
O=C(Nc1ccsc1C(=O)O)c1ccccc1Cl	1.7	-1.2
O=C(O)c1ccc([N+](=O)[O-])c(CS(=O)(=O)c2ccc(Cl)cc2)c1	0.66	1.5
CCN(CC)S(=O)(=O)c1ccc(NS(=O)(=O)CC23CCC(CC2=O)C3(C)C)cc1 (stereo not given)	0.13	-0.72
COc1cccc(C2CC(c3ccc(C)cc3)Nc3nc(N)nn32)c1 (stereo not given)	0.29	0.76
O=C(NCc1ccccc1)c1ccc2nnsc2c1	1.6	-1.4
COc1ccc(CNC(=O)CN2C(=O)NC(C)(c3ccc(C(C)(C)C)cc3)C2=O)cc1 (stereo not given)	1.4	-0.88
CCNC(=S)Nc1ccc(Cl)cc1	1.2	-0.18
CCOc1ccccc1N(CC(=O)NC1CCCC1)C(=O)CNC(=O)c1cccs1	1.4	-0.01
O=C(c1ccc(S(=O)(=O)c2ccc(F)cc2)c([N+](=O)[O-])c1)N1CCCCCC1	0.19	-0.62
CCCN(CCC)S(=O)(=O)c1cc(Br)cc2c1N(C(=O)CC)CC2	2.1	-2.3
CCN(CC)S(=O)(=O)c1cc(C(=O)Nc2cc(C)on2)ccc1Cl	0.36	-1.9
CC1Cc2ccccc2N1C(=O)COc1cccc(-n2cnnn2)c1 (stereo not given)	1.9	-0.03
CC(C)C(c1nnnn1Cc1cccs1)N1CCN(C(=O)c2ccco2)CC1 (stereo not given)	0.23	-2.7
Cc1cccc(C)c1NC(=O)CS(=O)CC(=O)NCC1OCCc2ccccc21 (stereo not given)	1.8	1.8
C=CCOc1c(CNC2CCCC2)cc(Cl)cc1OC	0.33	1.9
Cc1nonc1NC(=O)c1ccc(Cl)c(S(=O)(=O)N2CCCCC2)c1	0.3	-0.74
Cn1c(=O)cc(SCC(=O)NCC2CCCO2)c2ccc(Cl)cc21 (stereo not given)	6.2*	1.1*
CCC(C)NC(=O)Cn1c(=O)sc2ccccc21 (stereo not given)	0.09	0
CC1(C)Cc2c(sc(NC(=O)c3ccccc3Cl)c2C(=O)O)CO1	0.61	-0.78
O=C(COC(=O)CC12CC3CC(CC(Br)(C3)C1)C2)NC(=O)NCc1ccco1	0.4	-2.7
CCOc1ccc(C(=O)N2CCn3c2nc2ccccc23)cc1	0.13	0.02
CCC(C(=O)NC1CCCCC1)n1c(SCc2cccc(C)c2)nc2ccncc21 (stereo not given)	0.81	0.08
NS(=O)(=O)c1ccc(NC(=O)C2C3C=CC(C3)C2C(=O)O)cc1 (stereo not given)	0.2	1.9
COc1ccc(-c2csc(NC(=O)CC(C)C)n2)cc1	0.76	0.68
COc1ccc(NC(=S)NC23CN4CN(CN(C4)C2)C3)c(OC)c1	0.18	-1.4
COc1cccc(/C=N/Nc2nn3cnnc3c3ccccc23)c1O	0.22	1.1
CNC(=O)c1ccc(Nc2nnc(-c3ccc(C(N)=O)cc3)c3ccccc23)cc1	1	-1.8
COCOc1ccc(C=O)c(O)c1	0.41	-0.05
Nc1nc(NCc2ccccc2)nc(NCCO)c1[N+](=O)[O-]	0.11	-0.01
COc1ccc(C2Nc3ccc4ccccc4c3-c3c2c(=O)oc2ccccc32)cc1 (stereo not given)	0.62	-0.16
CC(=O)c1ccc(-c2ccc(C(=O)N3CCC(C(N)=O)CC3)o2)cc1	1	-0.53
COC(=O)c1cc(OC)c(OC)cc1NC(=S)N1CCCC(CO)C1 (stereo not given)	0.46	0.89
CC(=O)Nc1ccccc1NS(=O)(=O)c1ccccc1[N+](=O)[O-]	0.04	-0.82
COc1ccc(OC)c2nc(-c3cccnc3)ccc12	1.2	0.01
Cc1ccc(C(=O)C2=C(O)C(=O)N(CCCN3CCOCC3)C23C(=O)N(C)c2ccccc23)o1 (stereo not given)	1.3	1.8
Cn1c(N)c(C(=O)COC(=O)c2cncc(Br)c2)c(=O)n(C)c1=O	0.98	0.85
COc1cc(NC(=O)C2CC(c3cccc(OC)c3OC)=NO2)cc(OC)c1OC (stereo not given)	0.08	1.9
CC(=O)c1ccc(NC(=O)COC(=O)c2ccc(F)cc2F)cc1	0.8	0.63
COCCCN(C(=S)Nc1c(C)cc(C)cc1C)C(C)c1ccccn1 (stereo not given)	0.05	-0.5
Cc1ccc(S(=O)(=O)N2CCN(CC(=O)N/N=C/c3ccco3)CC2)cc1	0.05	1.2
CCCCN(CC)CCCNC(=O)c1cc2cc3ccc(OC)cc3nc2o1	0.04	1.9

Pulled one by one from the list above (seven):
SMILES	KCNQ2 enhance	KCNQ2 enhance baseline
COc1ccc(OC)c2nc(-c3cccnc3)ccc12	1.2	0.01
CC(=O)c1ccc(NC(=O)COC(=O)c2ccc(F)cc2F)cc1	0.8	0.63
CC(=O)c1ccc(-c2ccc(C(=O)N3CCC(C(N)=O)CC3)o2)cc1	1	-0.53
CCCCN(CC)CCCNC(=O)c1cc2cc3ccc(OC)cc3nc2o1	0.04	1.9
COC(=O)c1cc(OC)c(OC)cc1NC(=S)N1CCCC(CO)C1 (stereo not given)	0.46	0.89
COCCCN(C(=S)Nc1c(C)cc(C)cc1C)C(C)c1ccccn1 (stereo not given)	0.05	-0.5
Cc1ccc(C(=O)C2=C(O)C(=O)N(CCCN3CCOCC3)C23C(=O)N(C)c2ccccc23)o1 (stereo not given)	1.3	1.8

Complete entries as entered above:
COCCCN(C(=S)Nc1c(C)cc(C)cc1C)C(C)c1ccccn1 (stereo not given) in the list: KCNQ2 enhance: 0.05; KCNQ2 enhance baseline: -0.5
Cc1ccc(C(=O)C2=C(O)C(=O)N(CCCN3CCOCC3)C23C(=O)N(C)c2ccccc23)o1 (stereo not given) in the list: KCNQ2 enhance: 1.3; KCNQ2 enhance baseline: 1.8

Further entries follow:
SMILES	KCNQ2 enhance	KCNQ2 enhance baseline
CC(C)(c1ccccc1)c1ccc(OCC(O)CN2CCCC2)cc1 (stereo not given)	0.16	-0.27
O=C(COC(=O)/C=C/c1ccccc1[N+](=O)[O-])Nc1ccc(OC(F)F)cc1	1.2	-1.4
Cc1cc(=O)n2nc(N3CCC(C(=O)N4CCN(c5ccccc5)CC4)CC3)sc2n1	0.18	1.7
CCOc1ccccc1-c1nc2c([nH]1)c(=O)n(C)c(=O)n2C	2.5	-0.1
COc1cc(CCC(=O)Nc2cc(C)cc(C)c2)cc(OC)c1OC	0.86	-0.2
O=C(COC(=O)c1cccs1)NC12CC3CC(CC(C3)C1)C2	1.4	1.2
NS(=O)(=O)c1ccc(NC(=O)Cn2ncc3c2-c2ccccc2OC3)cc1	1.2	0.95
CC(C)(O)CCCC(C)(O)c1ccc(C(=O)O)cc1O (stereo not given)	0.43	0.99
CC1C(c2ccccc2)=[N+]([O-])C2(CCCCC2)N1O (stereo not given)	0.07	0.96
COc1ccc(-c2nn(-c3ccccc3)cc2/C=N/NC(N)=S)cc1OC	0.3	1.2
CCCCC(=O)N1CC(=O)Nc2ccc(F)cc2C1c1ccccc1 (stereo not given)	0.11	1.9
CS(=O)(=O)Cc1ccc(C(=O)NC2CCCc3ccccc32)cc1 (stereo not given)	1.3	0.06
CCCCN(C(=O)c1ccc(N2CCCC2=O)cc1)c1c(N)n(Cc2ccccc2)c(=O)[nH]c1=O	0.7	-0.7
CCCCCC(=O)c1ccc(O)cc1O	1.1	-1.7
Cc1cc(C)c(C#N)c(SCc2ccc(C(=O)O)cc2)n1	1.9	-1.7
COc1ccccc1C(=O)NCCC(=O)NC(C)c1ccc(-n2ccnc2)cc1 (stereo not given)	0.37	-0.9
Cc1cccnc1NC(=O)C12CCC(C)(C(=O)O1)C2(C)C (stereo not given)	0.89	1.3
Fc1ccccc1CSc1nnc(-c2cccnc2)o1	1.2	2.6
CCSc1ncc(Cl)c(C(=O)Nc2ccc(S(=O)(=O)Nc3ncccn3)cc2)n1	0.29	-1
CCO/C=C1\N=C(c2ccc(F)cc2)OC1=O	1.6	0.76
O=C1CCCC/C1=C/Nc1ccc2c(c1)OCO2	0.43	1.5
CC(C)NC(=O)C(=O)NCC(c1ccc2c(c1)OCO2)N1CCOCC1 (stereo not given)	3.1	-0.27
O=C1CC(c2ccccc2)n2nc(N3C(=O)CCC3=O)nc2N1 (stereo not given)	0.12	1.1
Cc1cccc(NC(=O)C2CCN(C(=O)N3CCOc4ccccc43)CC2)c1C	1.3	0.74
COCCOC(=O)c1c(NC(=O)CN2CCCc3ccccc32)sc(C(N)=O)c1C	0.29	0.45
Clc1ccc(-c2cc(COc3ccccc3)on2)cc1	0.34	0.57
CCCCNC(=S)N/N=C1\C(=O)c2cccc3cccc1c23	1.5	-0.71
COc1ccc(C(=O)Nc2ccc(OC)c(OC)c2)cc1	0.1	-0.01
CCOC(=O)C1C(c2ccc(O)c(O)c2)NC(=S)NC1(O)C(F)(F)F (stereo not given)	0.92	1.6
Cc1cccc(C(=O)Nc2cccc(C(=O)NC3CCCC3)c2)c1	1.9	-1.8
C=CCn1c(CCNC(=O)c2cccs2)nnc1SCC(=O)Nc1cccc(C(C)=O)c1	0.49	-1.2
CCCCn1c(SCC(=O)NCCc2ccc(OC)c(OC)c2)nc2c1c(=O)n(C)c(=O)n2C	0.32	0.21
COC(=O)[C@H]1[C@H]2C[C@@H]3c4[nH]c5cc(OC)ccc5c4CCN3C[C@H]2C[C@@H](OC(=O)c2ccc(N)cc2)[C@@H]1OC	2.9	1
CCOc1cc(-c2c(C)c(CC)nc(N)c2C#N)ccc1O	1.6	-0.25
Cc1cccn2c(=O)c3cc(C(=O)NC4CCCCC4)c(=N)n(Cc4ccc(F)cc4)c3nc12	1.5	1.8
COc1ccc(S(=O)(=O)N2CCC(N3CCCC3)CC2)cc1	0.24	0.64
CCn1c(SC)nc2c(c1=O)SC(C)C2 (stereo not given)	0.36	-0.25
O=C(COC(=O)c1cncc(Br)c1)NCc1ccc2c(c1)OCO2	0.2	-0.02
O=C(Nc1cc(=O)[nH]c2ncnn12)c1ccccc1Cl	1	-2.6
CCOC(=O)N1CCN(CC(O)COc2c(OC)cccc2OC)CC1 (stereo not given)	0.38	-1.4
COc1ccc(C)cc1S(=O)(=O)NC1CCCCC1C (stereo not given)	1.1	-0.22
O=C(NC1CCN(Cc2ccccc2)CC1)c1ccc(S(=O)(=O)NCc2ccco2)cc1	0.13	0.73
Cc1ccccc1NC(=O)c1cc(S(=O)(=O)N2CCCCC2)cs1	1.4	0.59
CC(Oc1ccccc1)C(=O)N1CCN(C(=O)C(C)Oc2ccccc2)CC1 (stereo not given)	0.39	-0.7
Cn1nc(C(F)(F)F)c(-c2cccc(C(F)(F)F)c2)c1NC(=O)c1cccnc1	0.46	0.8
O=C(c1cc(NC(=O)C23CC4CC(CC(C4)C2)C3)cc(NC(=O)C23CC4CC(CC(C4)C2)C3)c1)N1CCCCC1	0.25	-0.01
COc1ccc(NC(=O)C2Cc3ccccc3O/C2=N\O)cc1 (stereo not given)	0.46	0.03
CCC(C)C(NC(N)=O)C(=O)Nc1ccc(S(=O)(=O)Nc2ccc(OC)cc2)cc1 (stereo not given)	1.2	-0.01
CCCC(C)NS(=O)(=O)c1ccc(OC)c(C)c1 (stereo not given)	0.93	-2.9
O=C(O)COc1cccc(NC(=O)c2ccccc2)c1	2.3	-2.7
COc1ccc(OC)c(CC(NC(C)=O)C(=O)NC2CCN(c3nnnn3-c3ccccc3)CC2)c1 (stereo not given)	0.42	-0.02
C=CCn1c(CSCc2ccc(Cl)cc2Cl)nnc1SCC(=O)Nc1ccc(C(=O)O)cc1	2.3	-1.5
O=C(CNC(=O)Cn1cnc2sc3c(c2c1=O)CCCC3)NCc1ccccn1	0.34	-0.03
Cc1ccc(C2=[N+]([O-])C(C)(C)N(O)C2(C)C)cc1	0.59	-0.64
Cc1ccc(NS(=O)(=O)c2ccc3c(c2)oc(=O)n3C)cc1	0.42	-0.07
CC1=Nc2ccc(C)cc2/C1=C/c1c(N)n2nc(CC(=O)N3CCOCC3)sc2nc1=O	0.03	1.4
CCN(CC)Cc1c(C(=O)N/N=C/c2cccc(OCc3cccc(Cl)c3)c2)nnn1-c1nonc1N	0.7	-0.75
CC(=O)Nc1ccc(Sc2ccccc2C(=O)N2CCCC2)cn1	0.02	-0.28
Cc1ccccc1NC(=O)Cn1c(=O)n(CC2CCCO2)c(=O)c2ccccc21 (stereo not given)	0.8	1.4
CC(C)c1ccc(NC(=O)CSc2ncccc2C(=O)Oc2cccc([N+](=O)[O-])c2)cc1	0.35	0.65

Next entries:
SMILES	KCNQ2 enhance	KCNQ2 enhance baseline
COC(=O)C1=NNCC12CC(=O)N(c1ccc(Br)cc1)C2=O (stereo not given)	0.56	-1.6
CCOc1cc(N2CCOCC2)c(OCC)cc1NC(=O)COC(=O)CCOc1ccc(C)cc1	0.55	-2.9
COc1ccc(NC(=O)c2ccc(COc3ccccc3)o2)c(OC)c1	1.4	-2.5
O=[N+]([O-])c1cc(CN2CCN(c3ccccc3)CC2)c(O)c2ncccc12	2	-0.73

Source: PubChem BioAssay

These rows are one share of the data (hit frequency here may not be typical).
